Rango release inh – prevents RanGTP from dissociating the Rango-importin beta complex. Potency, µM (titrated, usually from 46.1 µM), for inactives: at the highest dose activity change, negative = inhibition. Biochemical FRET Rango-importin beta, RanGTP-induced dissociation. O95149+P62826. 340,000 compounds, 0.071% hits; active means falling FRET ratio curve, often poorly fitted, with flat reads before Ran was added; inconclusive means other falling curves, or compound fluorescence or quenching; inactive means flat or rising ratio curve;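 further: potency means the concentration at half of the fitted maximal effect; % of control where 0% means no effect; nearly all actives have a fitted effect of over 45% in size; -100% = wells without RanGTP and RCC1; the record marks most hits as doubtful in a second field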
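Compounds preincubate 5 min with complex of recombinant Rango and importin beta in PBS with 1 mM DTT. Ran (0.6 uM) loaded with 2 mM GTP plus 0.2 uM RCC1 starts dissociation; FRET is recorded 45 min later.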
GLA inh pH 4.5 – blocks human alpha-galactosidase A at pH 4.5 | P06280 | purified enzyme, 4-MU-alpha-Gal fluorescence, pH 4.5 | activity change, negative = inhibition, % at 105 µM | 230,000 tested, under 10 active | AID 1467; inconclusive = small, poorly fitted or top-dose-only inhibition, or a rising curve; inactive = flat fitted curve, though single readings scatter; no compound was filed as active;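 further: 0% = full activity with enzyme and -100% = basal without enzyme; dose as in the result columns while the protocol names 77 µM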
Target sequence (P06280 whole entry, looked up): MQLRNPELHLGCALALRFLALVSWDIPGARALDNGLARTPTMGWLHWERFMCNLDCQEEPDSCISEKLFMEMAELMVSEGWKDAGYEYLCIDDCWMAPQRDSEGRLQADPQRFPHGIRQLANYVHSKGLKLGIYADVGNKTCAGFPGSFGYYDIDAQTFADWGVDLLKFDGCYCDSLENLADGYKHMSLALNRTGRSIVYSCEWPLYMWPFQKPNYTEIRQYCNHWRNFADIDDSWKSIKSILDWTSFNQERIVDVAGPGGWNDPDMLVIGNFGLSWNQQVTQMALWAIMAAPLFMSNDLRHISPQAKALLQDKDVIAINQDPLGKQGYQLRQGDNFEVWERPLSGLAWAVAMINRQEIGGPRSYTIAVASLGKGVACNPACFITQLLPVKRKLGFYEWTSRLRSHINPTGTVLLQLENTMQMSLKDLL
miR-21 FLuc – raises the signal of a miR-21 reporter. HeLa miR-21 FLuc reporter, luciferase, 48 h. Potency, µM (series often up to 38.3 µM), for the others: at the top dose reporter change, positive = more light. 340,000 tested, under 10 active; active = well fitted rising curve with a large enough effect; inconclusive = small, poorly fitted or top-dose-only effect; inactive = no such curve, though single readings can be large or run the other way;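 further: % of control where 0% means no effect; miR-21 action dims this reporter so a rising signal means less miR-21 action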
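Compounds were titrated across several concentrations (up to approximately 40 uM) and incubated 48 hours with HeLa miR-21-FLuc reporter cells (miR-21 target sequence downstream of FLuc, endogenous miR-21). Readout was firefly luciferase luminescence after lytic detection reagent.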
Rango-impB inh – inhibitors of Rango-importin beta complex formation | Potency, µM (highest dose often 92.2 µM), without a hit: at the top dose inhibition of complex formation | Q14974 | 340,000 compounds, 0.031% hits | Rango CFP/YFP FRET sensor + importin beta, 45 min; active = rising FRET ratio curve, often small or poorly fitted; inconclusive = mostly compound fluorescence or quenching in the first reads; inactive = flat curves in all reads;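 further: potency means the concentration at half of the fitted maximal effect; 0% = DMSO wells and 100% = buffer wells lacking importin beta; nearly all actives have a fitted effect of over 15% in size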
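Inhibition scored from the CFP 486 nm/YFP 530 nm FRET ratio 45 min after adding 0.125 microM importin beta to 50 nM Rango biosensor preincubated 5 min with compound (room temperature, PBS with DTT, Tween-20, BSA). No-importin wells as positive control.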
An asterisk follows results filed as active; u = inconclusive; x = not tested or not shown; & = joins results of further samples; [ ] = another dose, or the depositor's remark. An excerpt; count on the stated rates, not on these rows.

mol | Rango release inh | GLA inh pH 4.5 | miR-21 FLuc | Rango-impB inh
CCCCNC(=O)CN1C(=O)NC2NC(=O)NC21 (stereo unspecified) | -3% | 1 | -1% | 2.9%
CCCCNC(=O)[C@@H]1CC=C[C@@H]2CCN(Cc3ccc(Cl)c(Cl)c3)C(=O)[C@@H]21 | 3% | x | x | 1.8%
O=C(CSCc1c(F)cccc1Cl)Nc1cccnc1 | -1% | -1 | -16% | -0.3%
COc1cc(/C=C2/C(=N)N3N=C(C(C)C)SC3=NC2=O)ccc1OS(=O)(=O)c1ccccc1 | -7% | x | -13% | u
COc1cc(C(=O)Nc2cccnc2)cc(OC)c1OC | -13% | x | 7% | 4.9%
Cc1cc(/C=C(\C#N)C(=O)N2CCCCC2)cc(C)c1O | u | x | 7% | u
O=C1C(Nc2ccccc2)=C(N2CCCCC2)C(=O)c2ccccc21 | -18% | 7 | 17% | -3.0%
O=C(Cn1nnc2ccccc2c1=O)NCCc1ccc(Cl)cc1Cl | 12% | 1 | -7% | 2.5%
C=CCN(C(=O)c1cccc(N2C(=O)C3CC=CC(C)C3C2=O)c1)c1ccccc1 (stereo unspecified) | u | -5 | 1% | u
CN1CCN(C(=O)/C(=C\c2cccs2)NC(=O)c2cccs2)CC1 | 1% | 9 | 0% | -2.9%
COc1ccc(Cl)cc1NC(=O)CNc1ccccc1CN(C)C1CCCCC1 | 22% | -4 | -9% | 0.4%
OC(COc1ccc2ccccc2c1)CN1CCCC1 (stereo unspecified) | -3% | 2 | -17% | 0.2%
COc1cc2ncnc(NCc3cccc(F)c3F)c2cc1OC | 9% | x | -4% | -0.9%
O=C(CN(CCO)c1ccccc1)Nc1cccc(S(=O)(=O)N2CCCC2)c1 | 1% | 0 | 3% | 0.0%
CCc1ccccc1NC(=S)N(Cc1cccc(C)c1)c1cccnc1 | -3% | -2 | -2% | -2.5%
Cc1ccc(CSCC(=O)N(C)CC(=O)Nc2ccccc2C(F)(F)F)cc1 | 22% | x | x | -2.8%
COc1cc2c(=O)n(CC3CCCO3)c(=O)n(CC(=O)Nc3cccc(Cl)c3)c2cc1OC (stereo unspecified) | 1% | -1 | 4% | -0.1%
O=C(COC(=O)/C=C/c1ccc(Br)o1)NCCCN1CCCC1=O | -4% | 0 | 2% | -1.0%
O=S(=O)(Cc1noc(-c2ccc(Cl)cc2)n1)Cc1ccco1 | -10% | -5 | 1% | u
COCCN1C(=O)c2oc3ccccc3c(=O)c2C1c1ccc(OC)c(OC)c1 (stereo unspecified) | 5% | 5 | -1% | u
COc1cc(-c2cc(-c3ccc(N)cc3)[nH]c(=O)c2C#N)cc(OC)c1OC | u | x | -1% | u
Cc1oc(-c2ccccc2Cl)nc1CSCC(=O)O | -4% | -6 | 16% | 2.6%
O=C(COC(=O)CNC(=O)c1ccc(Cl)cc1)NC1CCCCCC1 | 4% | x | x | 1.0%
O=C(Cn1c2[n+](c3ccc(C(F)(F)F)cc31)CCCCC2)c1ccc2c(c1)OCCO2 | -4% | 4 | 9% | -2.6%
Cc1ccc2c(NC(=O)c3ccco3)cccc2n1 | -9% | x | -15% | 1.6%
O=C(c1cc(-c2cccc(Cl)c2)on1)N1CCN(c2ccccc2)CC1 | 9% | x | -8%&-4% | -0.3%
CC(C)c1cccc(C(C)C)c1NC(=O)CN1C(=O)NC2(CCCC2)C1=O | 0% | x | 0% | 1.4%
N#CCCN1CCN(S(=O)(=O)c2ccc3c(c2)OCCCO3)CC1 | -19% | 5 | -3% | 0.4%
CCSc1nnc(NC(=O)CCC2CCCCC2)s1 | -15% | x | x | -4.0%
O=C(COC(=O)C1CC1)Nc1ccc(N=Nc2ccccc2)cc1 | 3% | 5 | -73% | 1.2%
CCNC(=O)NC(=O)C(C)Sc1nc2ccccc2c(=O)n1-c1cccnc1 (stereo unspecified) | -5% | x | 0% | 2.9%
Cc1cc(-c2ccc(N3C(=O)CCC3=O)c(C)c2)ccc1N1C(=O)CCC1=O | -5% | 3 | 0% | -2.1%
CCc1ccc(N(CC(=O)NC(C)C)C(=O)CCC(=O)Nc2nccs2)cc1 | -1% | x | 2% | -0.8%
CCOC(=O)C1CCN(C(=O)Cn2cc3c(n2)CCC(C)C3)CC1 (stereo unspecified) | -23% | 4 | -15% | 6.5%
Cc1cc(S(=O)(=O)NCCN2CCOCC2)c(C)s1 | 34% | 8 | 3% | 1.2%
COc1ccc(N(CC(=O)NC2CCCCC2)C(=O)CNC(=O)c2ccco2)cc1 | -8% | 3 | -4% | 7.1%
Nc1ccc(-c2cnc[nH]2)cc1[N+](=O)[O-] | -5% | -3 | -14% | 4.6%
Cc1ccc(N=C(NO)c2cnccc2C(F)(F)F)c(C)c1 | 3% | x | -2% | -1.7%
Cc1cccc(NC(=O)Cn2nc(-c3cccs3)ccc2=O)c1C | 4% | x | -12% | 0.0%
CC(C)Cc1ccc(-c2cc(=O)[nH][nH]2)cc1 | -2% | 6 | 4% | -3.8%
CCN(CC)S(=O)(=O)c1ccc(NS(=O)(=O)c2ccc(C)c(C)c2)cc1 | u | 4 | -3% | 1.1%
COc1ccc(/C=C/C(=O)NC(=S)Nc2cc3oc4ccccc4c3cc2OC)cc1 | -17% | -2 | 0% | 0.9%
O/N=C(/CN(O)/C=C1/C=CC=N1)c1cccs1 | -8% | -16 | -5% | -4.7%
COc1ccccc1NC(=O)CN1CCN(CC(=O)Nc2ccc(OCc3ccccc3)cc2)CC1 | 2% | -11 | 1% | -3.2%
Cn1c(N)c(C(=O)CSc2ccc3c(c2)OCCO3)c(=O)n(C)c1=O | -3% | 2 | -11% | -3.1%
O=C(NCc1ccccc1Cl)C1CCN(S(=O)(=O)N2CCCC2)CC1 | u | x | -4% | -0.6%
Cc1ccccc1OCC(=O)Nc1ccc(S(=O)(=O)N2CCCC2)cc1 | 13% | x | x | 2.1%
CCn1c(SCC(=O)Nc2cc(C)on2)nc2sc(C)c(C)c2c1=O | x | 2 | 0% | x
CCCC(=O)N1CCN(c2ccc(NC(=O)c3ccc(Br)o3)cc2)CC1 | 5% | -8 | 1% | -4.1%
CCN1/C(=C/c2ccc3cc(C)cc(C)c3[n+]2CC)Sc2cc(C)ccc21 | u | 0 | u | u
CCOC(=O)Cc1csc(Nc2c(C)n(C)n(-c3ccccc3)c2=O)n1 | 8% | 7 | -1% | 1.5%
c1ccc2c(c1)NCC1CCCN21 (stereo unspecified) | -14% | x | -2% | u
COc1ccc(Cn2c(-c3ccccc3)nc3c(c(=O)c4ccccc4n3C)c2=O)cc1 | -8% | 3 | 2% | 1.4%
O=C(NC1CCCc2ccccc21)c1cccc(F)c1 (stereo unspecified) | 3% | x | x | 0.6%
CC(=O)Nc1ccc(Nc2nc(C(F)(F)F)nc3c2nnn3Cc2ccccc2Cl)cc1 | -3% | x | 2% | -8.5%
CCN1C(=O)C(CC(=O)NC)N(NC(=O)c2ccccc2)C1=S (stereo unspecified) | -3% | -20 | 0% | u
COCc1nnc(NC(=O)c2ccc3c(c2)OCO3)s1 | 10% | 1 | -48% | 2.9%
Cc1ccc(-n2c(SCC(N)=O)nnc2-c2cnccn2)cc1 | -9% | 1 | -2% | -1.5%
O=C(C1CCCO1)N1CCN(C(=S)Nc2ccc(F)c(Cl)c2)CC1 (stereo unspecified) | 7% | 3 | -1% | 6.1%
Cc1ccc(Nc2cc(C)nc3c(C)cccc23)cc1 | 2% | x | 11% | -4.5%

(cont.)
mol | Rango release inh | GLA inh pH 4.5 | miR-21 FLuc | Rango-impB inh
CCOC(=O)N1CCN(Cc2ccc(F)cc2F)CC1 | -2% | 12 | -5% | -2.1%
O=C(/C=C/c1cccc([N+](=O)[O-])c1)Nc1ccc(Cl)cn1 | 14% | 5 | -19% | 0.5%
COc1cc(C(=O)Nc2ccccc2N2CCOCC2)ccc1OCC(=O)N1CCOCC1 | 4% | x | x | -0.2%
CC(=O)Nc1ccc(S(=O)(=O)NNC(=O)c2cccc(Br)c2)cc1 | 1% | 0[21.1 µM] | 0% | 4.6%
COc1cccc(CNC(=O)CCNC(=O)c2ccco2)c1 | 12% | x | x | 2.1%
O=C1c2ccccc2C(=O)N1CCCC(=O)N1CCc2ccccc21 | 9% | 0 | -2% | -0.3%
CNC(=O)CCc1ccc(OC)cc1 | 9% | 6 | -9% | -4.5%
COC(=O)Cc1cc(=O)n2c(nc3ccccc32)[nH]1 | u | x | x | u
CCOC(=O)N1CCN(c2nc3c(c(=O)[nH]c(=O)n3C)n2Cc2ccccc2Cl)CC1 | x | -6 | 0% | x
CC1(C)O[C@@H]2CC3C4C[C@H](F)C5=CC(=O)C=CC5(C)C4C(O)CC3(C)[C@]2(C(=O)CO)O1 (stereo partly specified) | 2% | x | x | 0.1%
CCOC(=O)C1(C(N)=O)OC1(c1ccc(Cl)cc1)c1ccccc1Cl (stereo unspecified) | -2% | x | x | 3.2%
CCOc1ccc(/C(C)=N/NC(=O)Cn2nc([N+](=O)[O-])cc2C)cc1 | 10% | 6 | 1% | 0.5%
CCN1C[C@@H]2[C@@H]3C(=O)N(Cc4ccccc4)C(=O)[C@@H]3[C@](C)(C1=O)N2C(=O)c1ccc(C)cc1 | 10% | x | x | 4.2%
Cc1[nH]c2ccccc2c1C(=O)CN1CCC(C)CC1 | 7% | -5 | -1% | 0.7%
O=C(COc1ccc(Cl)cc1Cl)N1CCCN(C(=O)COc2ccc(Cl)cc2Cl)CC1 | 13% | -11 | 25% | -0.2%
CC(=O)NC(Cc1ccccc1F)C(=O)NC1CCN(C(=O)c2cnccn2)CC1 (stereo unspecified) | 16% | 6 | -1% | 3.3%
Cn1ncc(Br)c1C(=O)NC1CCCC1 | 30% | x | 7% | -3.0%
O=C(NCCCN1CCCC1=O)Nc1ccc([N+](=O)[O-])cc1 | -3% | x | -10% | 0.8%
O=C1C2C3C=CC(C3)C2C(=O)N1c1ccc(S(=O)(=O)Nc2nccs2)cc1 (stereo unspecified) | 3% | 3 | 0% | 1.2%
O=C(O)CCCn1nc(C(F)(F)F)c2c1CCCCC2 | 0% | -9 | -5% | -2.7%
CS(=O)(=O)N1CCN(c2cnn(-c3ccccc3)c(=O)c2Cl)CC1 | 4% | -16 | 7% | -0.5%
Cc1sc(NC(=O)c2ccccc2)c(C#N)c1-c1ccccc1 | 9% | -1 | -62% | 0.0%
COc1ccccc1N1CC(C(=O)Nc2nnc(SCC(=O)NCC3CCCO3)s2)CC1=O (stereo unspecified) | 1% | x | -3% | 0.4%
CC12CCC(c3n[nH]c(=S)nc31)C2(C)C (stereo unspecified) | 4% | -2 | -6% | 2.1%

Reprinted from the results shown (two entries):
mol | Rango release inh | GLA inh pH 4.5 | miR-21 FLuc | Rango-impB inh
COc1ccccc1N1CC(C(=O)Nc2nnc(SCC(=O)NCC3CCCO3)s2)CC1=O (stereo unspecified) | 1% | x | -3% | 0.4%
CC12CCC(c3n[nH]c(=S)nc31)C2(C)C (stereo unspecified) | 4% | -2 | -6% | 2.1%

Later entries:
mol | Rango release inh | GLA inh pH 4.5 | miR-21 FLuc | Rango-impB inh
COc1ccc(OCC(=O)NCC(c2cccs2)N2CCOCC2)cc1 (stereo unspecified) | -10% | x | x | 0.7%
O=C(Cc1ccccc1)NCC(=O)Nc1cccc(Cl)c1 | -10% | x | 8% | 3.4%
O=C(CSc1ccccn1)N1CCCC(Nc2ccc(F)c(F)c2)C1 (stereo unspecified) | u | x | -11% | u
Cc1ccc(N(C)C(=O)C2CCCN2S(=O)(=O)c2ccc3c(c2)n(C)c(=O)c(=O)n3C)cc1 (stereo unspecified) | -5% | -3 | 9% | -3.8%
O=C(Nc1cnn(Cc2c(Cl)cccc2Cl)c1)C(c1ccccc1)c1ccccc1 | -7% | -10 | 3% | -3.0%
Cc1c(Cl)c(C(F)(F)F)nn1CC(=O)NN | 5% | -5 | 2% | -1.1%
CCOc1cc(/C=N/NC(=O)c2cccs2)ccc1OC(=O)N1CCOCC1 | -12% | -1 | -17% | -0.6%
